Anaer choline gr – choline-fed anaerobic bacterial growth inhibition; Gram-negative bacterium anaerobic choline minimal medium, absorbance growth; active compounds read low; many inactives read as strong as hits in the columns shown; calls only; hit rate 0.2% among 55,000;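 active = growth z-score on choline under -2 at 7 or 20 h with little or no fall on glycerol, limits in tiers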;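 note: stock transfer was 300 nL into about 50 µL; the organism is E. coli; final concentration not given here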
Anaer choline gr early – second read-out of Anaer choline gr, no call of its own (marks repeat the call); z-score; measured here: choline growth z-score, timepoint 1;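 score of optical density at 7 h as mean of two plates; lower means less growth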
The depositor's hits bear a star; i = inactive; & = joins results of further samples. This is a subset; rates above refer to the full screens.

molecule,Anaer choline gr,Anaer choline gr early
Cc1cc2c(cc1S(=O)(=O)N1CCCC(C(=O)Nc3cccc(Cl)c3)C1)OCC(=O)N2 (configuration not stated),i,0
Cc1ccc(C)c(OCC(O)Cn2c(C3CC(=O)N(C(C)(C)C)C3)nc3ccccc32)c1 (configuration not stated),i,0.87
COC(=O)CN1C(=O)CCS(=O)(=O)c2ccccc21,i,1.38
CN(CC1COc2ccccc2O1)C(=O)CN(C)S(=O)(=O)c1cc2c(cc1Cl)NC(=O)CO2 (configuration not stated),i,-0.72
Cn1c(=O)c2sccc2n2c(CCC(=O)NCCc3c[nH]c4ccccc34)nnc12,i,0.11
COc1ccc(-n2c(SCC(=O)NCC3CCCO3)nc3c(c2=O)SCC3)cc1 (configuration not stated),i,0.93
CCOC(=O)c1c(C)[nH]c(C)c1S(=O)(=O)NCC(=O)Nc1cc(C)nc2ccccc12,i,-0.41
CC1CCc2[nH]nc(C(=O)NC3CC3)c2C1 (configuration not stated),i,-0.49
CC(Oc1cc(O)c2c(=O)cc(-c3ccccc3)oc2c1)C(=O)c1ccccc1 (configuration not stated),i,0.59
CC(=O)N1CCc2cc(Br)c(S(=O)(=O)CCC(=O)N3CCN(c4ccccn4)CC3)cc21,i,-1.71
O=C(NCc1ccccc1)c1ccc(SCCN2CCCCC2)nc1,i,-3.1
O=C(NC1CCCc2ccccc21)c1cccc(Nc2ncc(-c3cccc(F)c3)cn2)c1 (configuration not stated),i,-0.03

Remaining list, next part
molecule,Anaer choline gr,Anaer choline gr early
Cc1nc(CCNC(=O)[C@H]2CCCN2S(=O)(=O)c2c(C)noc2C)cs1,i,-1.72
O=C(CCCC1NCC2CC1CN(Cc1ccccc1)C2)NC1CCCC1 (configuration not stated),i,-0.27
CCOc1ccc(C(=O)NCCc2sc3nc(-c4ccc(OC)cc4)nn3c2C)cc1OCC,i,0.23
CCCn1nc(SCC(=O)OCC)n2c(=O)c3c(nc12)-c1ccccc1CC3(C)C,i,-0.25
CCNc1nc(-c2ccccc2)cs1,i,-0.17
CCCCCCCCCCCCCCCCOC[C@H](CO)OC(C)=O,i,-1.15
Cc1ccc(CNS(=O)(=O)c2ccc(-c3cnc(C4CCCC4)o3)s2)o1,i,0.64
CCOc1cccc(N2C(=O)CC(N3CCN(c4ccc(OC)cc4)CC3)C2=O)c1 (configuration not stated),i,-0.08
c1ccc(-c2nnc3sc(-c4cccnc4)nn23)nc1,i,0.64
Brc1ccc(C(NCc2ccc3c(c2)OCO3)c2nnc(-c3ccccc3)o2)cc1 (configuration not stated),i,2.58
CC(=O)Nc1ccc(-c2noc(C3CCCN(C(=O)c4ccc(C)cc4C)C3)n2)cc1 (configuration not stated),i,-0.89
Cc1nn(-c2ccccc2)c(N2CCC(C(=O)NCCC3=CCCCC3)CC2)c1-n1c(C)ccc1C,i,0.38

Remaining list, next part:
molecule,Anaer choline gr,Anaer choline gr early
N=C(N)c1ccccc1,i,0.92
O=c1c2sccc2n2c(SCc3ccccc3)nnc2n1Cc1ccccc1,i,-0.52
O=C(c1cnc(N2CCOCC2)c2ccccc12)N1CCc2ccccc2C1,i,1.35
Cc1cc2c(cc1S(=O)(=O)N1CCCC1C(=O)N1CCOCC1)OC(C)C(=O)N2 (configuration not stated),i,-0.84
c1ccc(CSc2nnc3n2CCN3c2ccccc2)cc1,i,1
COc1ccc(CCC(=O)Nc2ccc(-c3ccc4ccccc4n3)cc2)cc1,i,-0.45
CCOc1cc(CN2CCCC2c2cc(C(C)C)on2)ccc1O (configuration not stated),i,-1.26
Cc1ccc(S(=O)(=O)Nc2ccc(-c3ccc4ccccc4n3)cc2)cc1C,i,0.31
CC(C1CC1)n1nccc1NC(=O)c1ccc(Br)cc1 (configuration not stated),i,-0.03
CCC1Oc2cc(S(=O)(=O)N3CCCC(C(=O)N4CCOCC4)C3)c(C)cc2NC1=O (configuration not stated),i,-0.94
CCN1C(=O)C2CCCCN2c2ccc(C(=O)Nc3ccc(C(C)C)cc3)cc21 (configuration not stated),i,0.57
Cc1ccc(NC(=O)c2cn(-c3cc(-c4noc(C5CC5)n4)ccc3C)nc2C)c(C)c1,i,1.59

(more compounds)
molecule,Anaer choline gr,Anaer choline gr early
CN1CCN(c2nn3c(NC(C)(C)C)c(-c4ccccc4)nc3s2)CC1,i,1.98
Cc1ccc(-c2nc(CN3CCN(C(=O)CN4C(=O)c5ccccc5C4=O)CC3)c(C)o2)cc1,i,-0.49
S=c1nc[nH]c2nc[nH]c12,i,-1.38&-3.11
COc1ccc2[nH]c(-c3ccccc3)c(CCNC(C)=O)c2c1,i,-0.17
Cc1cccc(C)c1NC(=O)Cn1c(=O)cc(C(=O)NCc2ccccc2)c2ccccc21,i,-0.27
Cc1ccc2nc(N3CCOCC3)c(-c3noc(C)n3)cc2c1,i,0.8
O=C1CC(C(=O)N2CCc3ccccc32)CN1CCc1c[nH]c2ccc(F)cc12 (configuration not stated),i,-0.59
O=C(Nc1cnn(-c2ncc(N3CCCCC3)cn2)c1)C1CCOC1 (configuration not stated),i,-1.16
COc1ccc(Nc2c3c(nc4ncnn24)CCC3)c(OC)c1,i,1.08
CC(C)Cc1ccc(S(=O)(=O)N2CCN(c3nc4ccccc4n4cccc34)CC2)cc1,i,-0.14
Cc1cc(-c2cc(S(=O)(=O)NC3CCCCCC3)c(C)s2)n[nH]1,i,0.6
CCc1nnc(-c2ccc(S(=O)(=O)N3CCN(C(C)C)CC3)o2)o1,i,-0.67

The list continues.
molecule,Anaer choline gr,Anaer choline gr early
CCCCN1CCN(S(=O)(=O)c2cc(-c3nc(C)cs3)n(CC(=O)N3CCCCC3)c2)CC1,i,-0.88
CCC(CO)NCc1ccc(-c2cccc(Cl)c2C)o1 (configuration not stated),i,-0.66
CC(CNC(=O)CCC1=NS(=O)(=O)c2ccccc2N1)c1ccccc1 (configuration not stated),i,0.08
CCn1cnc(S(=O)(=O)N2CCC(C(=O)NC3CCCC3)CC2)c1,i,-0.46
Cc1cc(-c2nn3c(C(C)C)nnc3s2)c2ccccc2n1,i,0.29
COc1ccccc1OCC(=O)Nc1onc2c1CC(C)CC2 (configuration not stated),i,-0.03
Cc1ccn2c(=O)cc(COc3cccc(NC(=O)C(C)(C)C)c3)nc2c1,i,0.38
COc1ccc(OC)c(S(=O)(=O)N2CCC3(CC2)Nc2ccccc2-n2cccc23)c1,i,0.22
CCOCCCNC(=O)CCNC(=O)N1CCSc2nc(C)cc(C)c21,i,0.39
CC1(C)CN(CC(=O)N2CCCC2)c2ccc(S(=O)(=O)N3CCCC3)cc21,i,-1.39
COCCNC(=O)C1CCc2sc(C(=O)N3CCC(C)CC3)cc2C1 (configuration not stated),i,0.86
CCCNC(=O)c1ccc(Nc2cc(-c3cccc(C)c3)ncn2)cc1,i,-0.58

Among those listed so far, five have a thiophene ring, fused or not:
molecule,Anaer choline gr,Anaer choline gr early
Cn1c(=O)c2sccc2n2c(CCC(=O)NCCc3c[nH]c4ccccc34)nnc12,i,0.11
Cc1ccc(CNS(=O)(=O)c2ccc(-c3cnc(C4CCCC4)o3)s2)o1,i,0.64
O=c1c2sccc2n2c(SCc3ccccc3)nnc2n1Cc1ccccc1,i,-0.52
Cc1cc(-c2cc(S(=O)(=O)NC3CCCCCC3)c(C)s2)n[nH]1,i,0.6
COCCNC(=O)C1CCc2sc(C(=O)N3CCC(C)CC3)cc2C1 (configuration not stated),i,0.86

4 of the entries above in order of the Anaer choline gr early value, descending:
molecule	Anaer choline gr early
COCCNC(=O)C1CCc2sc(C(=O)N3CCC(C)CC3)cc2C1 (configuration not stated)	0.86
Cc1ccn2c(=O)cc(COc3cccc(NC(=O)C(C)(C)C)c3)nc2c1	0.38
Cc1cc(-c2nn3c(C(C)C)nnc3s2)c2ccccc2n1	0.29
CC1(C)CN(CC(=O)N2CCCC2)c2ccc(S(=O)(=O)N3CCCC3)cc21	-1.39

(further entries)
molecule,Anaer choline gr,Anaer choline gr early
CN1CCN(C(=O)CN2C(=O)C3CCCCN3c3ccc(C(=O)N4CCCCC4)cc32)CC1 (configuration not stated),i,-0.23
O=C(NCc1c(-c2ccccc2)nc2n1CCS2)c1ccc(F)c(F)c1,i,2.1
O=C(CC1CCN(C(=O)C2CCCCC2)CC1)NC1CCCCCC1,i,-0.21
O=C(Cn1nc2c3sccc3ncn2c1=O)NCc1ccc(Cl)cc1,i,-0.35
O=C(CSC1=NS(=O)(=O)c2ccccc2N1)NCc1ccc(Cl)cc1,i,-0.38
COCCNC(=O)C1CCCCN1S(=O)(=O)c1ccc(F)cc1 (configuration not stated),i,-0.69
CCCN(CCC)S(=O)(=O)c1ccc2c(c1)CCN2C(=O)CCC(=O)O,i,-1.01
CCCCC[C@H](O)/C=C/[C@H]1[C@H](O)CC(=O)[C@@H]1CC(=O)CCCCC(=O)O,i,0.56
Cc1cc2c(cc1C)NC1(CCCCC1)C(=NCc1cc(F)cc(F)c1)N2,i,-0.14
CCc1cccc(-n2[nH]c3ncccc3c2=O)c1,i,-1.62
Cc1nc(OCC(=O)NC2CCS(=O)(=O)C2)c2c(-c3ccc(F)cc3)noc2n1 (configuration not stated),i,0.87
CCCC(=O)N(c1ccc2oc(C)c(C(=O)OCC)c2c1)S(=O)(=O)c1ccccc1,i,-0.05

Further structures
molecule,Anaer choline gr,Anaer choline gr early
COc1ccc(OC)c(S(=O)(=O)Nc2ccccc2-c2ccc3ccccc3n2)c1,i,0.53
Cc1cc2c(cc3n2CC(C)(C(=O)NC2CCCCC2)N(CCCN(C)Cc2ccccc2)C3=O)o1 (configuration not stated),i,-1.01
COc1cccc(NC(=O)CC2CCN(S(=O)(=O)c3ccc4c(c3)CCN4C(C)=O)CC2)c1,i,0.22
CCCCNC(=O)c1cc2c(s1)CN(C1CC1)C2,i,-0.69
Cc1c(Cl)cccc1NC(=O)Nc1ccc(SCc2cc(=O)n3c(ncn3C(C)C)n2)cc1,i,0.09
CC1Cc2cc(S(=O)(=O)N3CCC(C(N)=O)(N4CCCCC4)CC3)ccc2N1C(=O)C1CC1 (configuration not stated),i,-0.61
CCn1c(=O)c(-c2noc(C(=O)N3CCc4ccccc4C3)n2)nn(-c2ccccc2)c1=O,i,-0.44
Cc1ccc(C)c(-n2ncc3c(N4CCN(C)CC4)ncnc32)c1,i,0.29
O=c1[nH]c(N2CCN(C3CCCCC3)CC2)nc2c(-c3ccc(Br)cc3)csc12,i,0.16
O=S(=O)(NCc1ccco1)c1ccc2c(c1)-c1oncc1CO2,i,-0.71
Cc1ccc(-n2c(=O)c3c(cnn3C)n(CC(=O)Nc3cc(C)ccc3C)c2=O)cc1,i,0.33
CCc1ncc(C(=O)NCc2cccc(Cl)c2)c(C)n1,i,-0.49

Continuation:
molecule,Anaer choline gr,Anaer choline gr early
O=C(O)c1ccc(N2CCN(c3cccc(Cl)c3)CC2)c(NS(=O)(=O)c2ccccc2)c1,i,-1.44
CC(C)N(C)C1CCN(S(=O)(=O)c2ccc3[nH]c(=O)ccc3c2)CC1,i,0.31
Cc1cc(N2CCOCC2)nc(N2CCN(C(=O)c3c(F)cccc3F)CC2)n1,i,0.22
Cc1ccc(-c2nnc(SCC(=O)N3CCN(CCO)CC3)n2-c2ccccc2)cc1,i,-0.55
Cc1nn(-c2nc3ccccc3[nH]2)c2c1C(c1c(C)sc3ccccc13)CC(=O)N2 (configuration not stated),i,-0.3
CN(CC1CCCO1)S(=O)(=O)c1ccc(C(=O)Nc2nc3cc4c(cc3s2)OCO4)cc1 (configuration not stated),i,-0.52
CCC(=O)Nc1ccc2oc(-c3ccc(F)cc3)nc2c1,i,1.76
Cc1cc(C)cc(S(=O)(=O)Nc2cnc(N(CC(C)C)CC(C)C)c(C(=O)O)c2)c1,i,-0.7
O=S(=O)(c1cccc(Cl)c1)N1CCN(c2nc3ccccc3n3cccc23)CC1,i,1.51
CC1(C)CC(=O)C2=C(C1)NC(=O)CC2c1cccc(O)c1 (configuration not stated),i,-1.26
CC(C)(C)NC(=O)CN1C(=O)COc2ccc(C(=O)N3CCCC3)cc21,i,-0.36
COc1ccc(NC(=O)Nc2nnc(SCC(=O)NCc3ccccc3)s2)cc1,i,-1.35

(listing goes on)
molecule,Anaer choline gr,Anaer choline gr early
CCCC(=O)N(Cc1nc2nc(C)cc(=O)n2[nH]1)c1ccc(F)cc1,i,0.05
Cc1cccc(-c2csc(-c3nc(-c4ccc(OC(C)C)cc4)no3)c2-n2cccc2)c1,i,0.85
O=S1(=O)N=CNc2ccc(S(=O)(=O)Nc3ccccc3Cl)cc21,i,-1.16
CNC(=O)c1c(NC(=O)c2ccc(S(=O)(=O)N(C)C3CCCCC3)cc2)sc2c1CCC2,i,-0.71
C=CCNC(=O)c1cc(-c2cccnc2)nc2ccc(Br)cc12,i,-0.17
Cc1nn(CCCC(=O)NCc2ccc(Cl)cc2)c(=O)c2c(-n3cccc3)n(-c3ccccc3)nc12,i,0.68
Cc1ccc(C(C)C)c(OC(C)C(=O)Nc2ccc3c(c2)NC(=O)CO3)c1 (configuration not stated),i,-0.19
O=C1CSc2ccc(S(=O)(=O)N3CCC(C(=O)NC4CC4)CC3)cc2N1,i,-0.27
O=C(CCn1c(=O)sc2cc(S(=O)(=O)Nc3ccc(Cl)cn3)ccc21)N1CCCC1,i,-0.26
COc1ccc(C2C3=C(CC(c4ccc(OC)c(OC)c4)CC3=O)Nc3onc(C)c32)c(OC)c1 (configuration not stated),i,-0.27
CCOC(=O)c1nc2ccccc2nc1Nc1ccccc1OCC,i,2.26

As entered above.
For Anaer choline gr early, Cc1ccc(C)c(OCC(O)Cn2c(C3CC(=O)N(C(C)(C)C)C3)nc3ccccc32)c1 (configuration not stated) shows 0.87
For Anaer choline gr early, Cc1nn(-c2ccccc2)c(N2CCC(C(=O)NCCC3=CCCCC3)CC2)c1-n1c(C)ccc1C shows 0.38
For Anaer choline gr early, CCNc1nc(-c2ccccc2)cs1 shows -0.17
For Anaer choline gr early, c1ccc(-c2nnc3sc(-c4cccnc4)nn23)nc1 shows 0.64
For Anaer choline gr early, CCCNC(=O)c1ccc(Nc2cc(-c3cccc(C)c3)ncn2)cc1 shows -0.58
For Anaer choline gr early, CCCCN1CCN(S(=O)(=O)c2cc(-c3nc(C)cs3)n(CC(=O)N3CCCCC3)c2)CC1 shows -0.88
